Biofilm kill mix = mixture kills Candida albicans biofilm cells | C. albicans biofilm persisters + clotrimazole, fluorescence viability; primary screen in compound mixtures of four per well | inhibition, % at 7.6 µM | 0.02% of 120,000 active | AID 1242;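 active means inhibition above 30.3% in the primary screen of four-compound pools, then above 30% when the compound was retested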;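 further: compounds exposed to preformed 24 h biofilms for 48 h; the number belongs to the whole pool; some results filed as inactive read as strong as hits; inactives centre near 12; 0% = biofilm with clotrimazole alone and 100% = kill control; retested singly at about 60 µM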
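Assay system: C. albicans biofilms / Medium: RPMI/MOPS medium, pH 7.0 / Schedule: biofilm formation 24 h, compound exposure 48 h, 37 °C / Measured by: Alamar Blue fluorescence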
* marks the source's active call; other numbers are inactive results. The list is partial; count on the stated rates, not on these rows.

SMILES	Biofilm kill mix
CC(C)CNS(=O)(=O)c1cc(C(=O)OCC(=O)c2ccc3c(c2)OCCO3)c(Cl)cc1Cl	20.6
O=C(NNC(=S)Nc1ccccc1C(F)(F)F)c1ccc(Br)o1	3.8
Cc1cccc2cc(CN(C(=O)c3cccs3)c3ccccc3)c(=O)[nH]c12	16.3
CCOC(=O)C(C)Sc1ncc(-c2ccccc2)cn1 (centres undefined)	17.3
O=C(C1=NN[C@@H]2C(=O)N(c3cccc(F)c3)C(=O)[C@H]12)C(c1ccccc1)c1ccccc1	19.5
COc1ccccc1C(=O)N/C(=N/c1nc(C)cc(C)n1)Nc1ccccc1	19.4
Cc1cc(NC(=O)CCc2ccccc2)c([N+](=O)[O-])cc1C	11.9
Cc1ccc(COCC(CC(C)C)N2CCN(C(=O)c3cccc(C(F)(F)F)c3)CCC2=O)cc1 (centres undefined)	-1.7
COc1ccccc1CNC(=O)C1(C)Oc2cccnc2NC1=O (centres undefined)	13.0
O=C(CCCOc1ccccc1)Nc1cccnc1	9.9
O=C(CCn1c(=S)oc2ccccc21)NC1CCCCC1	23.0
S=C(NC1CCCC1)N1CCN(c2cccc(Cl)c2)CC1	9.0
CN1/C(=C/C=N/NC(=O)c2ccc([N+](=O)[O-])cc2)C(C)(C)c2ccccc21	6.3
Cc1sc2nc(CSCC(=O)N(CCC#N)c3ccccc3)[nH]c(=O)c2c1C	13.4
CC(=O)C1=C(C)N(c2ccccc2)C(=O)C1(NS(=O)(=O)c1ccc(N)cc1)C(F)(F)F (centres undefined)	3.4
CC(=O)Nc1ccc(O)cc1[N+](=O)[O-]	2.3
O=C(NC1CC1)C1=C[C@@H](c2csc3ccccc23)C[C@@H](OCc2ccc(CO)cc2)O1	18.4
Cc1cc2nc(CN(C)Cc3c(C(=O)N(C)C)nc4ccc(Cl)cn34)[nH]c2cc1C	-12.0
COc1ccc(C(=O)N/N=C(\c2ccccc2)c2ccccn2)cc1	14.5
CC(C)(C)C(=O)COC(=O)c1cc(-c2ccncc2)nc2ccccc12	2.8
COc1ccc([N+](=O)[O-])cc1N(CC(=O)N1CCCCC1)S(C)(=O)=O	9.6
CN(CCN1CCOCC1)Cc1nc(-c2cccs2)no1	12.7
O=C(c1cccnc1)c1cccnc1	10.2
CC(C)N(c1ccccc1)c1ccc(NC(=S)NCCN(C)C)cc1	11.0
O=C(Nc1cccc(S(=O)(=O)N2CCCC2)c1)c1ccc2ccccc2n1	0.5

Compounds from the list above with fluorine, in the order listed:
SMILES	Biofilm kill mix
O=C(NNC(=S)Nc1ccccc1C(F)(F)F)c1ccc(Br)o1	3.8
O=C(C1=NN[C@@H]2C(=O)N(c3cccc(F)c3)C(=O)[C@H]12)C(c1ccccc1)c1ccccc1	19.5
Cc1ccc(COCC(CC(C)C)N2CCN(C(=O)c3cccc(C(F)(F)F)c3)CCC2=O)cc1 (centres undefined)	-1.7
CC(=O)C1=C(C)N(c2ccccc2)C(=O)C1(NS(=O)(=O)c1ccc(N)cc1)C(F)(F)F (centres undefined)	3.4

Further compounds.
SMILES	Biofilm kill mix
COc1cc(NC2c3ccccc3C(=O)N2Cc2ccccc2)cc(OC)c1OC (centres undefined)	7.6
CC(C)Cn1c(=O)c2ccccc2n2c(SCC(=O)N3c4ccccc4CC3C)nnc12 (centres undefined)	7.8
O=C(O)COc1ccccc1/C=N/Nc1ccc(S(=O)(=O)Nc2ccc(Cl)cc2)cc1[N+](=O)[O-]	13.9
COc1cc(C2C(C#N)=C(N)OC3=C2C(=O)CC(C)(C)C3)ccc1OCCN1CCOCC1 (centres undefined)	16.2
Cc1[nH]c2ccccc2c1/C=N/Nc1nncn1N	16.4
O=C(NCc1ccccc1)C1COc2ccccc2O1 (centres undefined)	9.8
CCCCOc1ccc(N=Cc2cccs2)cc1	8.1
Cc1csc2sc(-c3ccnc(SCC(=O)NCc4ccccc4)n3)c(C)c12	26.6
CN(C(=O)c1coc(=O)c2ccccc12)c1ccccc1Cl	7.8
CCOCC(=O)Nc1nnc(Cc2ccc(OC)cc2)s1	14.1
O=C1CCCC2=C1C(c1ccsc1)CC(=O)N2c1ccccc1F (centres undefined)	0.4
CSC1=NCCCN1C(=O)c1c(-c2ccccc2Cl)noc1C	17.4
COc1ccc(/C=C2\S/C(=N/S(=O)(=O)c3cccs3)NC2=O)cc1	14.9
COc1ccc(N2CC(NC(=O)NC(C)(C)C)CC2=O)cc1 (centres undefined)	9.4
O=C1CCC(c2ccccc2)=NN1	13.1
COc1cc(-c2nc(CN(C)C(C)c3ccncn3)c(C)o2)ccc1F (centres undefined)	5.6
CC/C(=N\NC(C)=O)c1ccc(OC(F)F)cc1	11.3
CN(CC1CCOCC1)C(=O)CC1C(=O)NCCN1Cc1cccc(Oc2ccccc2)c1 (centres undefined)	3.2
COc1cccc(CNC(=O)CCc2nnc(C3CCCCC3)o2)c1	3.6
CC(C)CC(=O)CC1(O)C(=O)Nc2ccccc21 (centres undefined)	7.5
Cc1cccn2c(CNCCCOc3cccnc3)c(C(=O)N3CCOCC3)nc12	4.4
O=C(COC(=O)Cc1ccccc1F)Nc1ccc2c(c1)OCO2	13.7
O=C(c1ccc(Cl)cc1)N1CCN(c2cccc3[nH]ccc23)CC1	16.4
COc1cc(NC(=O)c2cccs2)c(C(=O)OCC(=O)c2cc(C)n(-c3ccccc3)c2C)cc1OC	7.6
O=C(Cc1csc(NC(=O)c2ccccc2)n1)NO	12.8

In the list so far, 2 have a cyano group:
SMILES	Biofilm kill mix
Cc1sc2nc(CSCC(=O)N(CCC#N)c3ccccc3)[nH]c(=O)c2c1C	13.4
COc1cc(C2C(C#N)=C(N)OC3=C2C(=O)CC(C)(C)C3)ccc1OCCN1CCOCC1 (centres undefined)	16.2

(more compounds)
SMILES	Biofilm kill mix
Cc1ccccc1OCC(=O)Nc1ccc2c(c1)C(=O)c1ccccc1C2=O	12.3
COC(=O)CSC(=S)N1C(C)CCCC1C (centres undefined)	2.5
CCCCN(CC)C(=S)Nc1ccc2nc3n(c(=O)c2c1)CCCCC3	13.6
CC(=O)c1cnc2c(-c3cccc(Br)c3)cnn2c1C	15.6
Cc1nc(N)ncc1C(=O)Nc1ccccc1	18.0
CC1CCC2(CC1)NC(=O)N(CC(=O)Nc1ccc3c(c1)OCCO3)C2=O (centres undefined)	-10.8
O=C(CNC(=S)N(CCCN1CCOCC1)Cc1cccs1)NC1CCCCCCC1	13.0
Cc1ccc(N2CCN(S(=O)(=O)N(C)C)CC2)cc1C	9.5
CCOc1ccc(-c2c(=O)n(OCc3ccc([N+](=O)[O-])cc3)c3ccccc3[n+]2[O-])cc1	12.0
Cn1c(OCc2cccnc2)nc2c1c(=O)n(Cc1ccc(F)cc1)c(=O)n2C	15.9
Cc1nc2ccccc2c(=O)n1NC(=O)c1ccc([N+](=O)[O-])cc1	14.4
Cc1ccc(NC(=O)/C(Cl)=C/c2ccccc2)cc1C	13.7
CC(=O)c1ccc(N2CCN(C(=S)Nc3cc(C)ccc3C)CC2)cc1	-7.1
CC1CC(C)CN(S(=O)(=O)c2ccc(Oc3ccc([N+](=O)[O-])cc3)cc2)C1 (centres undefined)	14.0
COCCN(C(=O)CCc1ccc(OC)cc1)c1nnc(-c2ccncc2)s1	3.8
CCc1ccc(NC(=S)Nc2ccc3cn[nH]c3c2)cc1	13.4
CCCCC(=O)OCC(=O)Nc1ccc(C)c(F)c1	11.0
CC(=O)c1cccc(NC(=O)C(Sc2ncnc3ccccc23)c2ccccc2)c1 (centres undefined)	18.4
CC(=O)c1ccc(Nc2cnn(C34CC5CC(CC(CC(=O)O)(C5)C3)C4)c(=O)c2Cl)cc1	6.2
CCC(C)[C@H](NC(=O)NCc1ccc(OC)c(OC)c1)C(=O)O (some centres undefined)	26.7
CN(C)/C=C/C(=O)c1ccc(S(=O)(=O)c2ccccc2)cc1	18.8
CCOC(=O)CNC(=O)Cc1ccc(OC)cc1	6.8
O=C(Cc1ccccc1[N+](=O)[O-])Nc1ccccc1C(=O)N1CCOCC1	5.7
Cc1csc(N(C(=O)Cc2ccccc2F)c2ccccc2)n1	12.8
O=C(C[n+]1cn(C(F)F)c2ccccc21)c1ccc(OC(F)F)cc1	12.4
SMILES	Biofilm kill mix
CCc1ccc(/C=N/NC(=O)Cc2cccn2C)cc1	9.2
CC(C)N(Cc1ccccc1)C(=S)NC(=O)C1(C)CC1(Cl)Cl (centres undefined)	14.2
O=C(CCc1nc(-c2ccccc2Cl)no1)NCC1CCCO1 (centres undefined)	22.3
COc1ccc(NC(=O)c2ccc3c(c2)OCO3)cc1[N+](=O)[O-]	1.7
Cc1ccc(C)c(NC(=O)C(OC(=O)c2ccc(C)s2)c2ccccc2)c1 (centres undefined)	24.1
O=C(Nc1ccccc1N1CCCC1)c1cccc(-c2cc3ccccc3oc2=O)c1	9.9
COc1ccc(/C=N/NC(=O)c2cccc(NC(C)=O)c2)c(C(=O)O)c1OC	13.4
Cc1onc(C(=O)NN)c1C(=O)Nc1ncc(C(F)(F)F)cc1Cl	7.2
CCN(C(=O)CN1CCN(c2ccccc2F)CC1)c1c(N)n(Cc2ccccc2)c(=O)[nH]c1=O	6.8
O=C(/C=C/c1cccs1)NCc1cccnc1	6.2
CCOC(=O)C1CCN(c2ccc([N+](=O)[O-])c(C(C)=O)c2)CC1	4.8
COc1cc(-c2noc(CCCC(=O)Nc3ccc(C(N)=O)cc3)n2)cc(OC)c1OC	15.6
Cc1ccc(OCCNC(=O)C(=O)NCc2ccco2)cc1	10.1
CC(C)(C)NC(=O)c1ccc2c(c1)CCO2	13.0
O=C(COC(=O)c1ccc[nH]c1=O)NC1CCCCC1	30.3
O=C(CN1CCN(c2ccccc2Cl)CC1)NC1CCCc2ccccc21 (centres undefined)	4.6
CCN(CC)c1ccc(C(=O)OCC(=O)N(C(C)C)C(C)C)cc1	6.3
CCC(=O)N1N=C(c2c(-c3ccccc3)c3cc(Cl)ccc3[nH]c2=O)CC1c1ccco1 (centres undefined)	26.4
O=C(O)CCN1C(=O)CC(N2C(=O)/C(=C/c3ccc(Cl)cc3)SC2=S)C1=O (centres undefined)	17.2
Nc1nc(-c2ccccn2)nc(N)c1Cc1c(F)cccc1Cl	5.9
O=C(Nc1ccc([N+](=O)[O-])cc1)c1cc2ccccc2nc1Cl	8.9
CNc1ccccc1C(=O)OCC(=O)c1ccccc1	6.1
COc1ccc(C(=O)CN(Cc2ccccc2)C2=NCCS2)cc1	14.8
Cc1ccc(S(=O)(=O)c2c(C)nn(C(C)(C)C)c2OC(=O)C(C)C)cc1	2.7
COc1cc(S(=O)(=O)NCc2ccccn2)c(OC)cc1Cl	8.5

3 entries drawn at random from those above:
SMILES	Biofilm kill mix
O=C(O)CCN1C(=O)CC(N2C(=O)/C(=C/c3ccc(Cl)cc3)SC2=S)C1=O (centres undefined)	17.2
COc1cc(S(=O)(=O)NCc2ccccn2)c(OC)cc1Cl	8.5
CCN(CC)c1ccc(C(=O)OCC(=O)N(C(C)C)C(C)C)cc1	6.3

Further entries:
SMILES	Biofilm kill mix
COc1ccc(/C(N)=N/OC(=O)/C=C/c2ccccc2)cc1	6.3
COc1cc(NC(=O)c2ccccc2-c2ccccc2)cc(OC)c1OC	44.2
COc1cccc(C(=O)C2CCCN(Cc3cccc(-n4cccn4)c3)C2)c1 (centres undefined)	25.4
COC(=O)c1sccc1NC(=O)CC1C(=O)NCCN1C(=O)Nc1ccc(C(F)(F)F)cc1 (centres undefined)	7.6
Cc1cc(NC(=O)COc2ccccc2C)no1	18.1
COc1ccc(-c2cc([C@H]3[C@H]4C=CC[C@@H](C)[C@@H]4C(=O)N3Cc3ccccc3)ccc2F)cc1	17.2
CCCCC1=CC2=C(c3ccco3)C(=O)C(C)(OC(=O)c3ccc(OC)cc3)C(=O)C2=CN1Cc1ccc2c(c1)OCO2 (centres undefined)	24.5
COc1ccc(O)c(C(=O)C2c3ccccc3C(=O)N2c2ccc(C)cc2)c1 (centres undefined)	21.5
Cc1ccc(S(=O)(=O)Nc2cc(=O)[nH]c3c2CCC3)cc1	19.1
CC(C)CN1C(=O)c2ccc(C(=O)Nc3c[nH]c(=O)[nH]c3=O)cc2C1=O	18.4
COC(=O)c1ccc(/C=N/NS(=O)(=O)c2cc(C)ccc2C)cc1	9.3
O=C(COc1ccc(C(=O)c2ccccc2)cc1)NC1CCCCCC1	14.9
Cc1c(/C=N/N2C(=O)C3C4C=CC(C4)C3C2=O)c2ccccc2n1C (centres undefined)	19.6
Cc1noc(C)c1C(=O)N1CCC2(CC1)Oc1ccc(F)cc1C(=O)C21CC(c2ccc(Cl)cc2)=NO1 (centres undefined)	2.5
CSc1ncc(CN2CCN(C3CCCC3)C(CCO)C2)cn1 (centres undefined)	6.6
CCOC(=O)/C(=C/c1ccc(OC(=O)c2ccccc2)cc1)C(C)=O	18.4
CCOC(=O)C1=C(C)N=C2SC(C(=O)OC)=CC(=O)N2C1c1ccc(OC)cc1 (centres undefined)	15.1
c1ccc(Sc2cccc3ccccc23)c(CNC2=NCCN2)c1	14.2
COC(=O)c1nnn(CC(=O)NC(=O)Nc2ccccc2F)c1C(=O)OC	11.5
O=C(CSCc1ccccc1Br)N/N=C/c1ccccc1C(=O)O	9.2
Cc1nn(-c2ccccc2)c(C)c1C(=O)OCC(=O)N(C)C1CCS(=O)(=O)C1 (centres undefined)	18.5
N#Cc1ccc(CSC2=NCCN2)cc1	6.0
COCCN1Cc2cccc(C(=O)NCCCN3CCCC3=O)c2C1=O	23.1
CC(=O)Nc1ccc(CN2CCCC(CO)(Cc3ccccc3C)C2)cc1 (centres undefined)	15.8
Cn1ccnc1C1CCCCN1Cc1nc(Cc2cccc(C(F)(F)F)c2)no1 (centres undefined)	15.0
CCO[C@@H]1OC(C(=O)NC2CC2)=C[C@H](C2CC2)[C@H]1CCCO	17.6
Cc1ccccc1Nc1nc(N)nc(CN2CCN(C(=O)c3ccccc3)CC2)n1	12.2
CC(/C=N/NC(=O)CNc1n[nH]c(=O)[nH]c1=O)c1ccccc1 (centres undefined)	13.7
O=C(O)c1ccccc1C(=O)Nc1ccc(Br)c(C(F)(F)F)c1	25.0
C/C(CC(=O)Nc1cccc(Cl)c1Cl)=N\NC(=O)c1ccccc1N	22.6
